# NPYLR7 ag = agonists of mosquito NPYLR7 receptor, primary screen, cell-based, Aedes aegypti, calcium fluorescence, mosquito biting behavior; 270,000 tested, 0.15% active; HEK293T NPYLR7/Galpha15, GCaMP6s calcium fluorescence; AID 1259423, 2018; Aedes aegypti neuropeptide Y-like receptor 7 (NPYLR7); activation, % at 10 µM; in the data active = activation above about 40%;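 note: 0% = vehicle and 100% = reference agonist at the receptor; some compounds past the cut are filed as inactive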
# NPYLR7 ag max-min = also measured in NPYLR7 ag; calls as there; activation, %; measured here: Max-Min RFU normalised activation; some inactives read as strong as hits;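 span of the calcium signal over five minutes; 0% = vehicle and 100% = native peptide agonist; compound fluorescence can raise it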
# * marks the source's active call; other numbers are inactive results; & = joins results of further samples.
# Order of results – NPYLR7 ag, NPYLR7 ag max-min
> CCOP(=O)(CNS(=O)(=O)c1ccc(F)c(Cl)c1)OCC
 : -8, -11
> CN(CCOc1ccccc1F)C(=O)CCn1nnc2ccccc2c1=O
 : 6, 6
> CCOc1ccc(NC(=O)CSc2nc3c(-c4ccccc4)c[nH]c3c(=O)n2CC)cc1
 : 2, -4
> COCC(=O)Nc1nnc(SCc2ccc(C#N)cc2)s1
 : 13, 13
> CCN(CC)S(=O)(=O)c1ccc(Oc2ccccc2)c(NC(=O)C2CC2C)c1 (stereo not drawn)
 : -7, -7
> CCN=c1scc(-c2ccc(C)cc2)n1N=C(C)c1ccc(C)o1
 : 3, 10
> COc1cc(CNC(=O)c2c[nH]c(=S)n2-c2ccc(F)cc2)cc(OC)c1OC
 : 0, -2
> Cc1ccc(CN(Cc2ccc(F)cc2)CC(O)COc2ccccc2)s1 (stereo not drawn)
 : -5, 9
> CCOc1ccccc1CN(CC)C(=O)c1c(C)cc(C)n(CC)c1=O
 : 5, 3
> C=CCn1c(SCC(=O)c2ccc3c(c2)CCN3S(=O)(=O)CC)nc2ccccc2c1=O
 : 6, 6
> CCCCOC(=O)c1ccc(NC(=O)c2c(-c3ccccc3Cl)noc2C)cc1
 : -1, -6
> O=C(Nc1ccccc1Oc1cccnc1)C1CCCN(Cc2ccoc2)C1 (stereo not drawn)
 : 11, 5
> CCC(=O)Nc1ccc(SCc2ccccc2Cl)nn1
 : 7, -3
> CCN(CC)C(=O)Oc1ccc2c(ccn2Cc2cccc(F)c2)c1-c1ccc(OC)cc1
 : 4, 1
> CCc1nc2n(n1)C(=O)C(C(c1cccc(OC)c1)N1CCC(C(=O)OC)CC1)S2 (stereo not drawn)
 : -2, 0
> CCN1CCc2cc(OC)c(OC)cc2C1C(NC(=O)Nc1ccc(C)cc1)C(C)C (stereo not drawn)
 : 7, 8
> Cc1cccc(C(=O)N2C(C(=O)NCc3ccccc3)COC23CCN(C(=O)C2CC2)CC3)c1 (stereo not drawn)
 : 0, 0
> CCN(CC)C(=O)Cn1cc(S(=O)(=O)CC(=O)Nc2ccc(C(N)=O)cc2)c2ccccc21
 : -3, -9
> Cc1cc(=O)[nH]c(C(C)Sc2nncs2)n1 (stereo not drawn)
 : 0, -1
> CCCNC(=O)CNC(=O)Cc1ccc(OC)cc1
 : 6, 4
> CCOC(=O)N(C)c1c(CC)nc2c(OCC3CCCCC3)cccn12
 : 5, -8
> CCOc1ccc(CN(Cc2cccc(C(F)(F)F)c2)Cc2nc(C(=O)NCCN(C)C)co2)cc1
 : 19, 18
> COC(=O)c1sc(=S)n(-c2ccc3c(c2)OCO3)c1N
 : 23, 11
> Cc1cccc2nc(-c3ccco3)c(NC(C)(C)CC(C)(C)C)n12
 : 14, 17
> O=C(CCN1CCCC(CCc2ccccc2F)C1)N1CCCC1 (stereo not drawn)
 : 0, -7
> NC(=O)c1nc(-c2ccncc2)nc2c1[nH]c(=O)n2-c1ccc(F)cc1
 : 1, -2
> Cc1cc(S(=O)(=O)N2CCN(c3cccc4[nH]ccc34)CC2)c(C)cc1Cl
 : -7, -11
> CCCNc1nc(SCCC)nc2c1cnn2CCNC(=O)C1CC1
 : 0, -2
> CC1c2cccn2CCN1C(=O)CNS(=O)(=O)c1cccs1 (stereo not drawn)
 : 3, 6
> CCCCCN(CC(=O)Nc1cc(C(C)(C)C)nn1-c1ccc(Cl)c(Cl)c1)C(=O)Nc1cccc(C)c1C
 : 17, 10
> CCOC(=O)c1cc(-c2cccc(NC(=O)c3cc(F)cc(F)c3F)c2)n(-c2ccccc2C)n1
 : 28, 15
> COC(=O)[C@@H]1C[C@@H](N(C)C)CN1C(=O)[C@@]12CC[C@@](C)(OC1=O)C2(C)C
 : 2&1, 2&0
> CC(NC(=O)CCc1nc2sc3c(c2c(=O)[nH]1)CCCC3)C12CC3CC(CC(C3)C1)C2 (stereo not drawn)
 : 3, 2
> COc1cc(Br)cc2cc(C(=O)N3CCN(c4cccc(Cl)c4)CC3)c(=O)oc12
 : 27, 24
> COc1cc2c(cc1OC)C(c1ccccc1Cl)N(C(=O)c1cccs1)CC2 (stereo not drawn)
 : 10, 0
> CC[C@@H](C(=O)[C@@H](C)[C@@H](O)[C@H](C)CCc1ccc(C)c(O)c1C(=O)O)[C@H]1O[C@](CC)([C@H]2CC[C@](O)(CC)[C@H](C)O2)C[C@@H]1C
 : -4, -8
> COc1ccccc1Cc1nc2c(c(N3CCOCC3)n1)CN(C(=O)C(Cl)Cl)CC2
 : -17, -21
> CCOC(=O)c1nn(-c2ccc(OC)cc2)c(=O)c2c(NC(=O)Cc3ccccc3)scc12
 : 5, 0
> O=C(CCNc1ccc(-n2ccnc2)cc1[N+](=O)[O-])NCC1COc2ccccc2O1 (stereo not drawn)
 : -8, -13
> CC(C)(C)OC(=O)NC(C)(C)C(C)(C)C(=O)NCC(=O)N1CCCC1
 : 2, 0
> CC(O)CNC(=O)[C@H]1Cc2c([nH]c3ccccc23)CN1 (stereo partly drawn)
 : 0, 2
> O=C1C2CC=CCC2C(=O)N1Cc1cccs1 (stereo not drawn)
 : 0, 1
> COC(=O)c1ccc(/C=C2/SC(=S)N(CC(=O)O)C2=O)cc1
 : -5, -10
> c1cnc(N2CCCN(Cc3cc4n(n3)CCNC4)CC2)nc1
 : 10, 4
> CC(C)c1cccc(C(C)C)c1NC(=O)Nc1ccc(N2CCCC2)c(C(=O)NC(C)c2ccccc2)c1 (stereo not drawn)
 : 9, 6
> Cc1c(N=CC=C2N(C)c3ccccc3C2(C)C)c(=O)n(-c2ccccc2)n1C
 : 5, 5
> COc1ccc(Cc2noc(-c3cscn3)n2)cc1OC
 : 11, 8
> CCCn1c(=O)c(C(=O)NC2CC2)nn(-c2ccc(Cl)cc2)c1=O
 : 0, 10
> Fc1ccc(-c2noc3c2CN(Cc2ccnc4ccccc24)CC3)cc1F
 : 4, 0
> Cn1ccsc1=NC(=O)c1ccc2c(c1)C(=O)N(Cc1ccncc1)C2=O
 : 6, 2
> O=C(CSc1nc(=O)n(Cc2ccncc2)c2c1CCC2)N1CCN(c2ccccc2)CC1
 : -7, -9
> CC(NC(C)c1nc(N)nc(N(C)C)n1)c1ccccc1 (stereo not drawn)
 : 7, 2
> Cc1ccccc1OCC(=O)N(CCn1cccn1)c1nc2ccccc2s1
 : -18, -17
> CCOC(=O)c1c(C)[nH]c(N=Nc2ccc3c(c2)OCO3)c1C
 : -1, -7
> CCc1nc(CSc2ccc(NC(C)=O)cc2)cs1
 : 2, -1
> Cc1ccc(-c2cc3c(=O)n(Cc4nc(-c5ccc(Cl)cc5)oc4C)ccn3n2)cc1
 : 2, -2
> CC(C)(C)c1cc2nc(-c3ccccc3)cc(C(=O)NCc3cccc(C(F)(F)F)c3)n2n1
 : 0&21, 6&14
> CC(C)=CCn1ccc2c1CCCC2C(=O)NCC1CCN(C)CC1 (stereo not drawn)
 : 23, 9
> CCOc1ccccc1C(=O)NCc1ccc(-c2ncc(-c3cccc(OC)c3)[nH]2)cc1
 : -5, -11
> CCOC(=O)C1(Cc2ccccc2)CCCN(C(=O)c2cnn(CC)c2)C1 (stereo not drawn)
 : 1, -1

# Additional entries
# Order of results – NPYLR7 ag, NPYLR7 ag max-min
> CCN(CC(=O)NCc1ccccc1F)CC1CCOCC1
 : 25, 16
> COc1cc(C=C2SC(=S)N(CCN3CCOCC3)C2=O)ccc1OC(F)F
 : 19, 13
> CC(CC1=[N+](c2ccccc2)C(C)(O)CS1)=Nc1ccccc1 (stereo not drawn)
 : 0, 0
> CCN(CCn1cccn1)C(=O)[C@H](O)C1CCCCC1
 : -1, -1
> CCN1CC(CNC2CCN(c3cccc(NC(=O)CC4CCCC4)c3)CC2)CC1=O (stereo not drawn)
 : 22, 12
> CCOCCn1c(SCC(=O)OC)nc2c1c(=O)[nH]c(=O)n2C
 : 11, 5
> CC1CN(CC(=O)N2CCC3(CC2)OCCO3)CC(C)O1 (stereo not drawn)
 : 6, 4
> COc1ccc(C(=O)N2CCC(C(=O)Nc3cccc(-c4nnc(C)s4)c3)CC2)o1
 : 3&-4, 0&-6
> CC(/C=C1\N=C(c2cccc(I)c2)OC1=O)=C\c1ccccc1
 : 14, 15
> C=CCn1c(=O)c2c(nc3n(-c4ccc(OC)c(Cl)c4)c(C)c(C)n23)n(C)c1=O
 : 0, 0
> O=C(NCc1ccccc1Br)c1cncn1-c1cccc(-c2cccc(OC(F)(F)F)c2)c1
 : 5, 6
> O=C(c1ccno1)N1CCN(c2nc3c(Cl)cccc3s2)CC1
 : -6, -12
> Cc1ccc(CNc2nccc(-c3cn(C)nc3C)n2)o1
 : 14, 6
> CC(C)C(NC(=O)c1ccccn1)c1nnc2n1CCN(C(=O)/C=C/c1cccs1)CC2 (stereo not drawn)
 : 29, 19
> Cc1ccc(CN2CCC(CN(C)Cc3cccn3-c3ncccn3)CC2)o1
 : -5, -8
> COc1ccc(-c2ccc(=O)n(CC(N)=O)n2)cc1OC
 : 12, 6
> CCc1cc2c(=O)n(Cc3ccco3)c(SC3CCOC3=O)nc2s1 (stereo not drawn)
 : 11, 7
> O=C(CCc1nnc(Cc2ccc(-c3ccccc3)cc2)o1)NC1CCc2ccccc21 (stereo not drawn)
 : 7&1, 4&-1
> CO[C@H]1C[C@@H]2C[C@H](c3ccccn3)OC[C@]2(O)[C@@H]1N1CCN(c2cnccn2)CC1
 : -4, -2
> O=C(CCC1CCN(Cc2ccoc2)CC1)Nc1ccccc1Cl
 : 5, 6
> Cc1cc(O)c(C(c2cccnc2)N2CCC(C)CC2)c(=O)n1Cc1ccco1 (stereo not drawn)
 : 5, 1
> COC(=O)[C@@H](CC(C)C)NC(=O)[C@@H]1C[C@@H](n2nnc(C(N)=O)c2C(N)=O)CCN1C(=O)c1cccn1C
 : -6, -15
> CCCCC(=O)Nc1cc(NC(=O)c2ccncc2Cl)ccc1OC
 : 13, -2
> COc1cc(C=NN=C(N)N)cc(OC)c1O
 : -3, -4
> CCN(Cc1noc(CC(C)C)n1)C(=O)c1ccc(NC(C)=O)cc1
 : 5, 2
> O=C(C(=O)N1CCCCC1CCc1cccc(O)c1)c1cccnc1 (stereo not drawn)
 : -8, -12
> O=C(c1cn(CCCc2ccccc2)nn1)N1CCCC(c2ccccc2)CC1 (stereo not drawn)
 : 13, 3
> O=C(NCc1nc(C2CC2)no1)c1cc2c(cc1O)CCCC2
 : -1, -1
> CCOC(=O)c1nnn(C(CC)C(=O)Nc2ccc(OC)cc2)c1C(=O)OCC (stereo not drawn)
 : -5, -12
> Cc1noc(C)c1CCc1nc(-c2ccccc2)no1
 : 16, 4

# Laid out differently: entries from further up
molecule | NPYLR7 ag | NPYLR7 ag max-min
Cc1cccc(C(=O)N2C(C(=O)NCc3ccccc3)COC23CCN(C(=O)C2CC2)CC3)c1 (stereo not drawn) | 0 | 0
COc1cc(C=C2SC(=S)N(CCN3CCOCC3)C2=O)ccc1OC(F)F | 19 | 13

# The main list resumes, repeating the 7 entries before the break.
# Order of results – NPYLR7 ag, NPYLR7 ag max-min
> COc1cc(C=NN=C(N)N)cc(OC)c1O
 : -3, -4
> CCN(Cc1noc(CC(C)C)n1)C(=O)c1ccc(NC(C)=O)cc1
 : 5, 2
> O=C(C(=O)N1CCCCC1CCc1cccc(O)c1)c1cccnc1 (stereo not drawn)
 : -8, -12
> O=C(c1cn(CCCc2ccccc2)nn1)N1CCCC(c2ccccc2)CC1 (stereo not drawn)
 : 13, 3
> O=C(NCc1nc(C2CC2)no1)c1cc2c(cc1O)CCCC2
 : -1, -1
> CCOC(=O)c1nnn(C(CC)C(=O)Nc2ccc(OC)cc2)c1C(=O)OCC (stereo not drawn)
 : -5, -12
> Cc1noc(C)c1CCc1nc(-c2ccccc2)no1
 : 16, 4
> CCc1ccc(CCC(=O)N2CCC(CCO)C2)cc1 (stereo not drawn)
 : -1, -5
> COCC(=O)N1CCN(C(C(=O)Nc2cccc(OC)c2)C2CCCC2)CC1 (stereo not drawn)
 : 12, 7
> CCN(CC)CCn1c(C)c(C)n2c3c(=O)n(Cc4ccc(F)cc4)c(=O)n(C)c3nc12
 : 0, 1
> NC1CCCN(c2nc3ccccc3s2)C1 (stereo not drawn)
 : 1, -1
> OC(Cc1ccccc1)CN(Cc1ccco1)Cc1c(-c2ccccc2)noc1N1CCOCC1 (stereo not drawn)
 : -1, -1
> OC(Cn1ccnc1-c1ccc(-c2ccccc2Cl)o1)c1cccnc1 (stereo not drawn)
 : 2&11, 1&9
> COc1ccc(C(=O)CSc2nc(=O)n3cccc(C)c3n2)cc1
 : 11, 10
> Cc1noc(C)c1S(=O)(=O)N[C@@H](C)C(=O)NC1CCc2ccccc21 (stereo partly drawn)
 : -4, -4
> CCOc1ccc(NC(=O)c2cccnc2NC(C)C)cc1
 : -8, -9
> Clc1ccc(Cn2ncc3c(N4CCCCC4)ncnc32)cc1
 : -1, -4
> COc1ccc2[nH]c(=O)c(CN3CCCOC(Cn4cccn4)C3)cc2c1 (stereo not drawn)
 : 3, 1
> O=C(N1CCCCC1)N1CCN(S(=O)(=O)/C=C/c2ccc(Cl)cc2)CC1
 : -1, -2
> CC(Nc1ccc2c(c1)Cc1ccccc1-2)C(=O)N1CCOCC1 (stereo not drawn)
 : 0, -1
> Cc1cc(C)n(CCC(=O)N[C@@H]2C[C@@H]3C[C@H]([C@H]2C)C3(C)C)c(=O)n1
 : 0&6, -3&6
> Cc1cccc(CSc2nnc(C(C)N)n2-c2ccc(Cl)cc2Cl)c1 (stereo not drawn)
 : 26, 22
> COCC(=O)N1CCc2cc(OC)c(OC)cc2C1c1c(F)cccc1Cl (stereo not drawn)
 : 23, 7
> O=C(NCCC1CC2CCC1C2)NCC1COCCO1 (stereo not drawn)
 : -6, -5
> FC(F)(F)c1ccc(COC2CCCNC2)cc1 (stereo not drawn)
 : 28, 37
> Cc1nn(C)c(Cl)c1C(=O)NC(C)c1ccc(-c2ccccc2)cc1 (stereo not drawn)
 : 3, 1
> Cc1[nH]ncc1CNC1CCN(c2cccc(Cl)c2)C1=O (stereo not drawn)
 : -24, -25
> Cc1cccc[n+]1CC(=O)c1cc2ccccc2oc1=O
 : 6, 4
> Cc1noc(C)c1NC(=O)CCCCOc1cccc(C#N)c1
 : 1, 3

# This is a subset (hit frequency here may not be typical).
